MenB inh – M. tuberculosis MenB inhibitors, primary screen, biochemical, absorbance. 1,4-dihydroxy-2-naphthoyl-CoA synthase (Mycobacterium tuberculosis (strain ATCC 25618 / …. AID 540299, 2011. MenB enzyme assay, absorbance read-out; some hits fall short of the stated cut. 100,000 compounds, 0.43% hits. inhibition, %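 (about 12 µg/mL by stock and volumes)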;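 active = mean of two replicates above 30%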;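 also: 0% = no compound and 100% = wells with inactive enzyme; the first replicate is given; strong numbers were not always called active; inactives centre near -10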
Mtb MbtI inh – MbtI salicylate synthase inhibitors, primary screen, biochemical, fluorescence intensity. P9WFX0. purified MbtI enzyme, fluorescence intensity read-out. inhibition, %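 (about 17 µg/mL by stock and volumes)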. 100,000 compounds, 0.89% hits. AID 493033, 2011;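 active = above 50% in both replicates, above 80% if mildly self-fluorescent; inactive = the rest, strongly fluorescent compounds included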;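 also: 0% = mean of negative and 100% = mean of positive controls; one replicate is shown; some compounds called inactive have numbers as strong as hits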
Target sequence (P9WFX0 whole entry, looked up): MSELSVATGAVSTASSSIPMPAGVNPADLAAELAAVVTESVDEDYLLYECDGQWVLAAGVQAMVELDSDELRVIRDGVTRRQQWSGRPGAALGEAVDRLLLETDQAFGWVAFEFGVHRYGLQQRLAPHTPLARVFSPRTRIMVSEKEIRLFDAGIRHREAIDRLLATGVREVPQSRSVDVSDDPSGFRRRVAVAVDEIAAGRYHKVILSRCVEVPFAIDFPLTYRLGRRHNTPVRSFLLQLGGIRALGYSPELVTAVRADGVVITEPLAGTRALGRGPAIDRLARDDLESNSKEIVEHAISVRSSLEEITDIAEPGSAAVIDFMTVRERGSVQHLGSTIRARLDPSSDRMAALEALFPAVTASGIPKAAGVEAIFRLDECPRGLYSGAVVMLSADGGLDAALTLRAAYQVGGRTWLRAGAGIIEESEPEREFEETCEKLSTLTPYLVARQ
PV pol inh – poliovirus RdRp elongation inhibitors, primary screen, biochemical, fluorescence polarization, total intensity | Genome polyprotein (Poliovirus type 1 (strain Mahoney)), P03300 | 150,000 compounds, 0.66% hits | % elongation, % (compound at 16.7 µg/mL) | poliovirus polymerase elongation; active compounds read low | AID 588519, 2011; in the data active = % elongation below about 90%; also: some results filed as inactive read as strong as hits
Target sequence (P03300 1749-2209 limits assumed): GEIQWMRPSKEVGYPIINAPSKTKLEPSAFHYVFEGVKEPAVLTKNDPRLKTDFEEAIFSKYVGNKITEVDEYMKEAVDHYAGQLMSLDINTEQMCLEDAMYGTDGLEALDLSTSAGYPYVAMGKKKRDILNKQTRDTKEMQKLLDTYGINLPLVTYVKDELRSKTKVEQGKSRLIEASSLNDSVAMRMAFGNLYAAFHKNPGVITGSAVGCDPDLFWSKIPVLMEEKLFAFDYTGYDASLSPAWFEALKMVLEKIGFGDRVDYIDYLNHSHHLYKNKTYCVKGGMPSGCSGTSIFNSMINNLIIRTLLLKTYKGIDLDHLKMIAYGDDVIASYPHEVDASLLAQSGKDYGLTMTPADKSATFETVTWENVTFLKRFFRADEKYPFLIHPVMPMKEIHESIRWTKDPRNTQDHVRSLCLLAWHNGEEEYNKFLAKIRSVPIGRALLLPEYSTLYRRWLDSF
PV pol inh intensity – also measured in PV pol inh; calls as there; % elongation; measured here: total intensity read-out; formula for this scale not given here;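 total fluorescence in place of polarization; lower means less elongation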
* hit, by the source's call; . = not tested or not shown; & = joins results of further samples; ! = not confirmed by another sample.

SMILES	MenB inh	Mtb MbtI inh	PV pol inh	PV pol inh intensity
CC1CCCC(C)N1C(=O)COC(=O)c1ccc2c(c1)OCO2 (stereo not drawn)	2	27	100	101
COc1ccc(CCN2C(=O)CNC2=S)cc1	-30	7	104	101
Cc1ccc(OC(=O)c2c(-c3ccccc3)nnc3ccccc23)cc1	-22	-8	100	107
Cc1ccc(-c2csc(NC(=O)CC3CCCC3)n2)o1	-22	15	104	107
CN(C)S(=O)(=O)c1ccc(C(=O)Oc2ccc(-n3ccnc3)cc2)cc1	-1	-24	91	96
Cc1ccc(NCc2nc3ccccc3s2)cc1	-27	-1	100	104
CC(C)(C)S(=O)(=O)Cc1nc(-c2ccc(C(F)(F)F)cc2)cs1	-43	-4	104	106
CN1C(=O)c2cccc3c(Cl)cc(Cl)c1c23	3	-1	103	103
CC(C)(C)NC(=O)CN1CCN(c2nc(-c3ccc(Cl)cc3)cs2)CC1	-5	3	104	105
CC(Oc1ccc2c(-c3ccccc3)cc(=O)oc2c1)C(=O)N1CCOCC1 (stereo not drawn)	9	14	101	98
CC(=O)N1CCc2cc(-c3csc(N)n3)ccc21	-6	55	.	.
COc1ccc(CN2CCC(N(C)Cc3ccccc3)CC2)cc1	-13	-6	100	97
CC(C)c1ccc(S(=O)(=O)CC#N)cc1	-10	-7	108	112
Nc1nnc(SCC(=O)OCC(=O)Nc2nc(-c3ccccc3)cs2)s1	-7	14	103	104
CC(=O)Oc1cncc(C(=O)O)c1	-13	-41	104	102
CC(OC(=O)C1CCCO1)C(=O)NC1CCCC1 (stereo not drawn)	-18	-1	104	104
COc1ccc(NC(=O)NC(C)c2c(-n3cccc3)sc3c2CCCC3)cc1 (stereo not drawn)	-3	-6	101	105
O=C(Nc1nc2c(s1)CCCC2)C1CCCCC1	-58	-3	102	99
O=C(NCc1ccc(Cl)cc1)c1cc2c(s1)CSC2	-17	34	104	106
FC(c1nc2ccccc2[nH]1)C(F)(F)F (stereo not drawn)	7	-21	102	112
COC(=O)c1ccc(N2C(=O)C3ON(c4ccccc4C)C(c4ccc(F)cc4)C3C2=O)cc1 (stereo not drawn)	1	-3	102	99
CNCCCC12CCC(c3ccccc31)c1ccccc12	-9&2	-11&-17	101&101	103&102
COc1ccc(Cl)cc1N(CC(=O)N1CCN(Cc2ccccc2)CC1)S(C)(=O)=O	-24	-11	102	105
Cc1cc(C)c2nc(NC(=O)C(C)C)sc2c1	.	-3	107	109
Cc1ccsc1C1c2c(C)nn(-c3ccccc3)c2N=C(c2ccccc2O)C1C(=O)O (stereo not drawn)	-35	-12	108	99
Next compounds follow.
SMILES	MenB inh	Mtb MbtI inh	PV pol inh	PV pol inh intensity
CN(C)c1ccc(/C=C/c2ccncc2)cc1	-50	-5	102	127
COC(=O)C(NC(=O)C12CC3(C)CC(C)(CC(C)(C3)C1)C2)C(C)C (stereo not drawn)	-25	-7	104	106
CCN(CC)S(=O)(=O)c1cc(C)ccc1OC	-10	-7	100	102
OCCCc1cc(-c2ccccc2)n[nH]1	3	-12	102	103
COc1ccc(NC(=O)CC2C(=O)N(Cc3ccco3)C(=S)N2CCCN2CCN(c3ccc(F)cc3)CC2)cc1 (stereo not drawn)	-22	1	101	101
CCc1ccc2c(c1)C1CC(C)(O2)N(CC)C(=S)N1 (stereo not drawn)	3	18	100	100
O=C(O)Cc1csc(-c2ccsc2)n1	2	25	98	105
O=C(COC(=O)c1cccc(C(=O)OCC(=O)NC2CC2)n1)NC1CC1	-11	7	102	108
Cc1ccc2c(c1)-c1c(ssc1=S)C(C)(C)N2C(=O)C(C)C	-13	.	104	111
CC1C=CCC2C(=O)N(c3ccc4c(c3)CCC4)C(=O)C12 (stereo not drawn)	-24	-9	104	107
NC(CC(=O)O)c1cccc(Oc2ccccc2)c1 (stereo not drawn)	.	-4	103	103
O=C1NC(=O)C(C(CC(=O)C2CC2)c2ccccc2)C(=O)N1 (stereo not drawn)	-3	.	103	103
O=c1c(Cl)c(Cl)cnn1-c1nc2ccccc2[nH]1	-16	-164	48*	58*
O=C(/C=C/c1ccc(Br)o1)OCC(=O)N1CCCC1=O	-14	7	105	96
CCOc1ccc2nc(SCCC(=O)Nc3ccccc3)sc2c1	-19	-1	102	103
NC(=O)CC1=NC(=O)CS1	7	.	101	123
Cc1ccc(SC(C)C(=O)NCC(C)C)cc1 (stereo not drawn)	2	-11	99	104
NC(=S)Cc1nnc(N2CCOCC2)n1-c1ccccc1	-7	3	102	104
c1ccc2c(c1)NCCCS2	-3	-12	101	111
CCn1cc(C=C2C(=O)NC(=O)NC2=O)c2ccccc21	-24	33	92	119
CCN1N=C(c2ccccc2)CCC1=O	1	.	104	116
Cc1sc2nc(C)n(/N=C/N(C)C)c(=O)c2c1C	-10	4	103	103
COc1ccc(-n2c(=O)[nH]cc(C(=O)N3CCCc4ccccc43)c2=O)cc1	-16	2	101	101
COC(=O)C1=C(C)N(CC2CCCO2)C(=O)/C1=C\c1cc(C)n(-c2ccc(OC)c(Cl)c2)c1C (stereo not drawn)	-85	-97	103	98
CCOc1ncnc2ccc(Br)cc12	-27	-8	100	104
The list continues:
SMILES	MenB inh	Mtb MbtI inh	PV pol inh	PV pol inh intensity
Cc1cc(-n2c(C)cc(C(=O)CN3C(=O)NC4(CCCCCC4)C3=O)c2C)no1	3	4	103	107
CCN(CC)C(=S)SCc1cn2cccnc2n1	-60	14	100	97
O=c1oc(Cl)c(Cl)c2ccccc12	-9	4	90*!	87*!
CC(=O)NC1C(=O)N(C)c2c(C)cc(C)cc21 (stereo not drawn)	10	3	100	104
C=CCN(CC=C)Cc1nc(N)nc(Nc2ccccc2C)n1	-20	-104	106	106
COc1ccc(C2Nn3c(C)nnc3SC2C(=O)N2CCCC2)cc1 (stereo not drawn)	-14	-6	102	100
NC(=O)CP(=O)(c1ccccc1)c1ccccc1	-63	-2	102	100
N#C/C(=C/c1cn(-c2ccccc2)nc1-c1cc2ccccc2o1)S(=O)(=O)c1ccccc1	5	-1	102	106
COc1ccc(NS(=O)(=O)c2ccccc2)cn1	16	13	100	101
O=C(NC1CC1)c1cc2cc(Cl)ccc2oc1=O	11	-8	102	101
CC(C)CCNC(N)=O	-1	9	104	100
N#CCCCN1C(=O)C(=C(C#N)C#N)c2ccccc21	17	1	100	102
Cc1noc(C)c1COC(=O)CCc1ccc(S(=O)(=O)N2CCCCC2)cc1	-12	-6	106	106
Cc1cc(=O)[nH]c(NN=C(CC(C)C)CC(C)C)n1	-36	9	100	104
COC(=O)N(C)c1ccccc1C(=O)N1CCOCC1	-4	.	108	103
CC1C2(C)OC(=N)C(C#N)(C(c3ccncc3)O2)C1(C#N)C#N (stereo not drawn)	-25	.	147	180
Clc1cccc(Cc2cn3cc(-c4ccccc4)nc3s2)c1	0	2	101	103
CN(Cc1cccs1)CC(O)COCc1ccco1 (stereo not drawn)	-10	-7	103	111
COC(=O)C1=C(C)OC(N)=C(C#N)C1c1cc2ccc(C)cc2[nH]c1=O (stereo not drawn)	-16	26	102	103
CC(=O)NC12CC3CC(C1)CC(C(=O)OC(C)C(=O)Nc1ccccc1C#N)(C3)C2 (stereo not drawn)	-22	-15	105	111
NC(=S)N1N=C(c2cccs2)CC1c1ccco1 (stereo not drawn)	-18	12	98	100
C=COC(=O)CSc1nc(-c2cccs2)ccc1C#N	-13	-218	102	104
Cc1[nH]c(-c2ccc(F)cc2)cc1C(=O)N1CCN(c2ccccc2F)CC1	-19	-39	104	100
Cc1cnc(NC(=O)C2CCC(C(C)(C)C)CC2)s1 (stereo not drawn)	-10	-1	98	97
CC(C)N1C(=O)/C(=C\c2cccc3ccccc23)SC1=S	.	-16	100	101

Continued; the last 2 above are carried over.
SMILES	MenB inh	Mtb MbtI inh	PV pol inh	PV pol inh intensity
Cc1cnc(NC(=O)C2CCC(C(C)(C)C)CC2)s1 (stereo not drawn)	-10	-1	98	97
CC(C)N1C(=O)/C(=C\c2cccc3ccccc23)SC1=S	.	-16	100	101
[O-]/[N+](Cc1ccccc1F)=N\O	5	-15	103	102
Cc1ccc(-n2nc3ccc(NC(=O)C(C)C)cc3n2)cc1	-6	.	99	106
CC(C)NC(=O)CCc1nc(-c2ccc(C(C)(C)C)cc2)no1	-31	-11	102	107
CCc1ccc(NC(=O)CN(C)S(=O)(=O)c2ccc3[nH]c(=O)oc3c2)cc1	-19	-7	100	100
CCOC(=O)c1ccccc1N/C=C/C(=O)C(C)(C)C	-25	-8	101	102
C=CCn1c(C)cc(C(=O)Cn2c(C(C)O)nc3ccccc32)c1C (stereo not drawn)	-29	20	101	96
Cc1ccccc1OCc1nnc(SCC(=O)O)n1CCc1ccccc1	-42	-7	105	103
CCCCNc1nc2ccccc2[nH]1	-10	-21	103	105
CCCCN=C1SCC(c2cc(C)n(Cc3ccco3)c2C)=NN1C	2	-2	.	.
CCn1c(=O)c2c(n3c(SCC(N)=O)nnc13)-c1ccccc1CC21CCCCC1	-10	2	98	103
CN(Cc1ccccc1)C(=O)c1ccc(-n2ccc3ccccc32)s1	-18	184	101	101
CCOC(=O)c1[nH]c(CN2CCc3ccccc3C2)c(C(=O)OCC)c1C	-26	-8	104	107
C=CCn1c(-c2nonc2NC(=O)CC)nc2ccccc21	-3	-13	99	106
O=C1CCC(C(=O)OCC(=O)N2CCOCC2)=NN1	-11	-2	103	101
CC(N=Cc1ccccc1O)c1ccccc1 (stereo not drawn)	-23	-3	102	98
COc1cc(OC)cc(OC)c1	-11&5	1&-7	103&100	107&102
CCOc1ccc(N2Cc3ccccc3C2=N)cc1	.	-7	103	107
COC(=O)c1ccc(C)c(NC(=O)CCn2[nH]c(=O)ccc2=O)c1	2	12	104	109
Cc1cc(C(=O)O)nn1-c1ccccc1	4	11	105	101
CN1CCC(N(C)C(=O)c2cc3sc4ccccc4c3s2)CC1	.	-5	101	103
COc1ccc2nc3oc(C(=O)N4CCC(N5CCCCC5)CC4)cc3cc2c1	0	88	102	104
Cc1nn(-c2ccccc2)c2sc(C(=O)OCC(=O)C(C)(C)C)cc12	16	22	104	103
CCCCn1c(=O)n(C)c(=O)c2c(C(=O)OC)cc(-c3ccccc3OC)nc21	6	26	100	104
COc1ccccc1N1CCN(C(=O)c2ccc[nH]c2=S)CC1	-36	81*	101	102
O=C(Cn1cc(/C=c2/sc3nc4ccccc4n3c2=O)c2ccccc21)N1CCCC1	-2	-5	72	175
(next part)
SMILES	MenB inh	Mtb MbtI inh	PV pol inh	PV pol inh intensity
O=C(C1=NN(C2CCS(=O)(=O)C2)C(=O)CC1)N1CCc2ccccc21 (stereo not drawn)	3	-4	104	106
Cn1nnnc1SCC(=O)c1ccc2c(c1)CCC(=O)N2	3	21	99	107
Cc1ccc(C(=O)c2cnc3cc4c(cc3c2N2CCC(C(N)=O)CC2)OCO4)cc1C	-25	-6	105	110
Cc1ccc(S(=O)(=O)N2CCOCC2)c(C)c1	2	1	103	107
CC1CCCCC1n1c(SCc2cc(=O)n3ccsc3n2)nnc1-c1cccnc1 (stereo not drawn)	-26	14	97	101
O=c1ccc(-c2ccccc2)nn1CCN1CCCCC1	-1	36	103	104
OCc1cc2c(s1)CCCC2	-16	-2	103	101
CC(=O)Nc1cc2c(ccc3ccccc32)oc1=O	-24	109	104	102
CS/C(=N\S(=O)(=O)c1cccs1)NC(=O)c1ccccc1	4	-10	100	104
COc1nc(N2CCCCCC2)nc(N2CCCCCC2)n1	-2	-3	102	102
CN(C)Cc1ccccc1CNC(=O)c1cc(Cl)nc(Cl)c1	-5	4	103	104
O=S1(=O)CCC(NS(=O)(=O)c2ccccc2)C1 (stereo not drawn)	-18	-3	99	101
Cc1csc(=O)n1CCN1C(=O)NC2(CCC(C)CC2)C1=O (stereo not drawn)	-13	1	99	106
NC(=O)COC(=O)c1cc(-c2ccccc2)c(N2CCOCC2)s1	3	6	98	104
CC(O)(C#CC12CC3CC(CC(C3)C1)C2)c1cccs1 (stereo not drawn)	-11	.	110	110
Nc1nnc(-c2ccccc2)c(-c2ccccc2)n1	.	-6&5	102	98
CCOC(=O)c1c(NC(=O)c2nc3n(n2)C(C(F)F)CC(C)N3)sc2c1CCCC2 (stereo not drawn)	-22	-116	102	102

Grouped by structure, the compounds so far with an NH in an aromatic ring (12)
SMILES	MenB inh	Mtb MbtI inh	PV pol inh	PV pol inh intensity
FC(c1nc2ccccc2[nH]1)C(F)(F)F (stereo not drawn)	7	-21	102	112
OCCCc1cc(-c2ccccc2)n[nH]1	3	-12	102	103
O=c1c(Cl)c(Cl)cnn1-c1nc2ccccc2[nH]1	-16	-164	48*	58*
COc1ccc(-n2c(=O)[nH]cc(C(=O)N3CCCc4ccccc43)c2=O)cc1	-16	2	101	101
Cc1cc(=O)[nH]c(NN=C(CC(C)C)CC(C)C)n1	-36	9	100	104
COC(=O)C1=C(C)OC(N)=C(C#N)C1c1cc2ccc(C)cc2[nH]c1=O (stereo not drawn)	-16	26	102	103
Cc1[nH]c(-c2ccc(F)cc2)cc1C(=O)N1CCN(c2ccccc2F)CC1	-19	-39	104	100
CCc1ccc(NC(=O)CN(C)S(=O)(=O)c2ccc3[nH]c(=O)oc3c2)cc1	-19	-7	100	100
CCCCNc1nc2ccccc2[nH]1	-10	-21	103	105
CCOC(=O)c1[nH]c(CN2CCc3ccccc3C2)c(C(=O)OCC)c1C	-26	-8	104	107
COC(=O)c1ccc(C)c(NC(=O)CCn2[nH]c(=O)ccc2=O)c1	2	12	104	109
COc1ccccc1N1CCN(C(=O)c2ccc[nH]c2=S)CC1	-36	81*	101	102

Compound activity: PubChem BioAssay, ICCB-Longwood Screening Facility, Harvard Medical School
